SARS PLP yeast: inhibitors of SARS-CoV papain-like protease in yeast. S. cerevisiae expressing SARS-CoV PLpro, growth rescue; control for the full effect not named in the record. Potency, µM (doses to about 32.9 µM), without a hit: top-dose activity, positive = growth rescue. 0.19% of 330,000 active; also: 0% is about no effect; nearly all actives have a fitted effect of over 55% in size; growth read by luminescence after 48 h
MARV entry inh: Marburg virus entry inhibition; Marburg virus pseudotyped entry inhibition, cell reporter; control for the full effect not named in the record; about a third of the inactives were read at about 46 µM; Potency, µM (doses to about 37.8 µM), for the others: at the highest dose activity change, negative = inhibition, hits mostly inhibitors; 1.8% of 300,000 active; active = well fitted inhibition curve with a large enough effect; inconclusive = small, poorly fitted or top-dose-only effect, or effect the other way; inactive = flat fitted curve, though single readings scatter; tested in HEK293 cells; about a fifth of its hits are not listed in these tables; also: % is scaled to controls: 0 for no effect and ±100 for the full control effect; luciferase read-out
Lassa entry inh: Lassa virus entry inhibition. Lassa virus pseudotype entry inhibition, cell reporter; control for the full effect not named in the record. Potency, µM (highest dose often 37.9 µM), for inactives: at the highest dose activity change, negative = inhibition, actives largely listed as inhibitors. 1.2% of 300,000 active; active means well fitted inhibition curve with a large enough effect; inconclusive means small, poorly fitted or top-dose-only effect, or effect the other way; inactive means flat fitted curve, though single readings scatter; tested in HEK293 cells; also: % is scaled to controls: 0 for no effect and ±100 for the full control effect; nearly all actives have a fitted effect of over 50% in size; luciferase read-out
StopGo reporter: lowers the luciferase signal of an FMDV 2A StopGo reporter | 1.2% of 410,000 active | human cells with a luciferase reporter of 2A StopGo recoding; control for the full effect not named in the record | Potency, µM (doses to about 57.9 µM), without a hit: at the top dose signal change, negative = less light; active = well fitted falling curve with a large enough effect; inconclusive = small, poorly fitted or top-dose-only effect; inactive = no such curve, though single readings can be large or run the other way; tested in HEK293T cells; also: % is scaled to controls: 0 for no effect and ±100 for the full control effect; nearly all actives have a fitted effect of over 45% in size; luciferase light after 4 h
NS1 inh: inhibitors of influenza NS1 protein function | S. cerevisiae slowed by influenza A NS1, growth recovery by OD600 | AID 2326 | 0.4% of 270,000 active | Potency, µM (series often up to 46.1 µM), without a hit: top-dose activity, positive = more growth; also: actives are rising curves; nearly all actives have a fitted effect of over 50% in size
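OD600 was taken as the measure of yeast growth restored by compound in an NS1-expressing S. cerevisiae strain. Cells had been washed out of glucose medium and diluted 1:100 into galactose -URA medium, pH 6.0.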
Cruzain noTriton: blocks cruzain activity in detergent-free assay; P25779; 2.3% of 200,000 active; purified cruzain, Z-FR-AMC fluorescence, no detergent; AID 1476; Potency, µM, for inactives: max response, negative = inhibition, most hits filed as inhibitors; active = well fitted curve in the direction sought with a large enough effect; inconclusive = small, poorly fitted or top-dose-only effect, or another doubt; inactive = no such curve, though single readings can be large; an effect the other way counts as inactive or inconclusive;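 also: plate controls were enzyme without inhibitor for no effect and buffer without enzyme for full effect; nearly all actives have a fitted effect of over 40% in size; top concentration of the series not given in the record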
Target sequence (P25779 123-467 limits assumed): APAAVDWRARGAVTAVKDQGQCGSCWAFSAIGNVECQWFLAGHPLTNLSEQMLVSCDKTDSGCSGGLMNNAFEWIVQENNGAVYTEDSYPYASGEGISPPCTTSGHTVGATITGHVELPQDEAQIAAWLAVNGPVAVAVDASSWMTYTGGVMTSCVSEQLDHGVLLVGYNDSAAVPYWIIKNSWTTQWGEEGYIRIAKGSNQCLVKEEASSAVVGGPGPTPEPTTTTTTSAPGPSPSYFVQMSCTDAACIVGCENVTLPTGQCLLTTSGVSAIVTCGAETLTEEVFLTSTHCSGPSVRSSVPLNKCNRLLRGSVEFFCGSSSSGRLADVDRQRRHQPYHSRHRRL
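Purified cruzain at 1.5 nM, pre-incubated 15 min with compound at room temperature in 100 mM sodium acetate pH 5.5, 5 mM DTT, 0.00005% Triton X-100. Reaction started with 2 uM Z-FR-AMC; AMC fluorescence increase over 60 s gives rate.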
Cruzain Triton: blocks cruzain activity in presence of Triton detergent; P25779; purified cruzain, Z-FR-AMC fluorescence, 0.01% Triton; Potency, µM, without a hit: max response, negative = inhibition, usual class: inhibitors; 0.43% of 200,000 active; AID 1478; active = well fitted curve in the direction sought with a large enough effect; inconclusive = small, poorly fitted or top-dose-only effect, or another doubt; inactive = no such curve, though single readings can be large; an effect the other way counts as inactive or inconclusive;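 also: plate controls were neutral wells for no effect and buffer without enzyme for full effect; nearly all actives have a fitted effect of over 40% in size; top concentration of the series not given in the record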
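Purified cruzain (1.5 nM final) was preincubated with compounds for 15 min at room temperature in 100 mM sodium acetate pH 5.5, 5 mM DTT, 0.01% Triton X-100. Reaction started with 2 uM Z-FR-AMC; AMC fluorescence change over 60 s gave activity.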
RE007 growth inh: less growth of the S. pombe RE007 Vpr strain; S. pombe RE007 Vpr strain, BacTiter-Glo ATP luminescence, 24 h; control for the full effect not named in the record; Potency, µM (top dose mostly 92.2 µM), inactives show at the highest dose activity change, negative = less growth; 0.21% of 360,000 active; active = well fitted falling curve with a large enough effect; inconclusive = small, poorly fitted or top-dose-only effect; inactive = no such curve, though single readings can be large or run the other way;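 also: % is scaled to controls: 0 for no effect and ±100 for the full control effect; nearly all actives have a fitted effect of over 50% in size; the assay follows cell death caused by Vpr and the record does not say whether a fall means rescue or toxicity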
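Fission yeast strain RE007, carrying one chromosomally integrated HIV-1 vpr copy, was seeded at OD 0.01 in PMG+AL medium with 23 nL pinned compound. After 24 h at 30 °C and 99% humidity, viability was read by BacTiter-Glo luminescence.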
* marks the source's active call; other numbers are inactive results; u = inconclusive; x = not tested or not shown; & = joins results of further samples; [ ] = dose if it differs, or a comment. Unless noted, calls follow the shape of the dose curve; as a rule, active means well fitted rising curve with a large enough effect; inconclusive means small, poorly fitted or top-dose-only effect; inactive means no such curve, though single readings can be large or run the other way. Potency is read from the fitted curve at half-maximal effect.

SMILES | SARS PLP yeast | MARV entry inh | Lassa entry inh | StopGo reporter | NS1 inh | Cruzain noTriton | Cruzain Triton | RE007 growth inh
CCCCn1c(=O)[nH]c(=O)c2c1nc(Cn1ncc(Cl)c(Cl)c1=O)n2CCC | 2% | u | u | u | 14% | x | x | 2%
COc1cccc(C(=O)N(CN2CCCC2=O)c2cccc(Cl)c2)c1 | -3% | 0% | 8% | -23% | 13% | -2% | -1.7% | -15%
O=C(CSCn1nnc2c(=O)[nH]c(Cc3ccc(F)cc3)nc21)Nc1cccc(C(F)(F)F)c1 | x | 4%[46.1 µM] | 7%[46.1 µM] | -6% | x | 9% | -4.0% | x
Cc1c(NC(=O)CS(=O)(=O)c2ccccc2)c(=O)n(-c2ccccc2)n1C | 2% | -2% | 3% | 3% | 2% | x | x | -1%
Cc1cc2ncn(CCOc3ccccc3C#N)c2cc1C | -2% | 7% | 14% | 7% | -39% | 2% | -4.1% | -5%
O=C(CN1CCOc2ccccc21)NCc1ccccc1 | 7% | 5% | u | -2% | u | -2% | -1.2% | 3%
CC(=O)Nc1ccc(NC(=O)CSc2nnc(-c3cccnc3)o2)cc1 | 2% | -3% | u | 3% | x | x | x | -13%
COC(=O)C(C)NC(=O)c1ccc(C(C)(C)C)cc1 (stereo unspecified) | 5% | u | u | 36%[activator] | -6% | 15% | 1.0% | 15%
COc1cccc(NC(=O)Cn2cnc3c(oc4nc5c(cc43)CCCC5)c2=O)c1 | u | x | x | 11% | -12% | x | x | -10%
COc1ccccc1NC(=O)CSc1oc(-c2ccc(F)cc2)nc1S(=O)(=O)c1ccc(Br)cc1 | x | 4%[46.1 µM] | 10%[46.1 µM] | -11% | x | 2% | -2.2% | x
COc1ccc(-c2nnn(CCc3nn[nH]n3)n2)cc1OC | 4% | 13% | 2% | -13% | 2% | 6% | 4.7% | 3%
COCCN(C(=O)c1snc(C(N)=O)c1N)C(C(=O)NC1CCCCC1)c1cc(OC)c(OC)c(OC)c1 (stereo unspecified) | -2% | x | x | 2% | 6% | x | x | 9%
CSc1ncccc1C(=O)OCC(=O)NC(C)C | 0% | 2%[46.1 µM] | 1%[46.1 µM] | 6% | x | x | x | -18%
C=C(C)Cn1c(N2CC(C)CC(C)C2)nc2c1c(=O)[nH]c(=O)n2C (stereo unspecified) | 0% | x | x | -22% | 4% | x | x | 10%
S=c1[nH]nc(-c2ccc(Cl)cc2Cl)n1-c1ccc(Cl)cc1 | 2% | 14%[46.1 µM] | 23%[46.1 µM] | -10% | -12% | x | x | 12%
NNC(=O)C1CCN(S(=O)(=O)c2ccc(Cl)cc2)CC1 | x | 4%[46.1 µM] | 2%[46.1 µM] | -2% | x | x | x | 4%
CC(C)(C)c1ccc(C(=O)NCC(=O)O)cc1 | -1% | -15%[46.1 µM] | 18% | -17% | 6% | x | x | -6%
CCC[C@@H](CN[C@@H](CNC)[C@H](C)CC)NCC1CCC(C(C)(C)C)CC1 (stereo partly specified) | -1% | x | x | -29% | -4% | x | x | 1%
CC1(C)Cc2c(sc3nc(SCC(=O)O)nc(N)c23)CO1 | u | 25% | 2% | -3% | -2% | x | x | -24%
CC(C)CC(NC(=O)C1CCC(C)CC1)C(=O)Nc1ccccn1 (stereo unspecified) | -5% | 4% | -19% | 51%[activator] | -4% | 6% | -1.0% | -1%
CN(C)c1ccc(CN2CCCCCC2)cc1 | 4% | 0% | -8% | -5% | -8% | -4% | 1.2% | -7%
O=C(CCc1nc2ccccc2c(=O)[nH]1)NCCN1C(=O)S/C(=C\c2ccc(OC(F)F)cc2)C1=O | x | -3% | -19% | 0% | x | x | x | -2%
O=c1[nH]c(SCc2ccccc2)nc2ccsc12 | -3% | u | 26% | 44%[activator] | x | x | x | 1%
C=CCSc1nnc(-c2cc(C(C)(C)C)nn2Cc2ccc(F)cc2)n1C | 0% | u | x | 7% | 2% | x | x | 3%
COc1ccc(OC)c(NC(=O)C2CCCN(S(=O)(=O)c3ccc(-n4cnnn4)cc3)C2)c1 (stereo unspecified) | -1% | u | -21%[46.1 µM] | -9% | 5% | x | x | 4%

(next part)
SMILES | SARS PLP yeast | MARV entry inh | Lassa entry inh | StopGo reporter | NS1 inh | Cruzain noTriton | Cruzain Triton | RE007 growth inh
Cc1cc(C)n(CCc2nc3c4ccccc4nc(SCc4ccc(F)cc4)n3n2)n1 | x | x | -5%[46.1 µM] | -8% | x | -1% | 3.8% | x
O=C1CCc2cc(S(=O)(=O)NC(Cc3ccccc3)C(=O)NC3CCCC3)ccc2N1 (stereo unspecified) | -4% | 2% | x | -20% | -5% | -4% | 5.7% | -9%
CC1Oc2ccccc2N(CC(=O)NCC2CCCO2)C1=O (stereo unspecified) | 1% | -6% | 11% | -10% | -14% | -14% | 6.9% | 16%
CN(c1ccccc1)S(=O)(=O)c1ccc(C(=O)Nc2nccs2)cc1 | 10% | x | x | u | 20% | 1% | -5.0% | 1%
Cc1ccc(C(=O)N/C(=C\c2ccc(Cl)cc2)C(=O)NCCN2CCOCC2)cc1 | -4% | -26%[46.1 µM] | x | 5% | 4% | x | x | 18%
O=C(CSCCO)Nc1ccc(C2CCCCC2)cc1 | -14% | 21% | 3% | 0% | -40% | 27% | -2.9% | 8%
Cc1ccc(NC(=O)CNCc2ccccc2)cc1Br | -7% | 8%[46.1 µM] | -26% | -22% | x | x | x | 4%
CN1CCN(c2ncc3c(n2)CCN(Cc2ccc(Br)s2)C3)CC1 | x | x | 26%[46.1 µM] | -19% | x | 3% | -3.2% | x
CCCCN1CNC(=S)N(CCc2ccccc2)C1 | 28% | u | u | 23% | -13% | -1% | -1.4% | 10%
C/C(=N\NC(=O)C(N)=O)c1ccc2c(c1)OCCO2 | -1% | u | 27% | -2% | 0% | x | x | -8%
O=C(Nc1cccc(Cl)c1)C1CC1c1ccccc1 (stereo unspecified) | x | u | -23% | -16% | x | x | x | -8%
Cc1ccc(N2C(=O)CC(NNC(=O)Cc3ccc(F)cc3)C2=O)cc1Cl (stereo unspecified) | 0% | x | x | 8% | -5% | x | x | 20%
CCOc1ccc(CCNC(=O)CN2C(=O)c3cccnc3Oc3ccc(Cl)cc32)cc1 | -5% | u | u | -13%&-8% | -11% | x | x | -1%
O=C(/C(=N\O)n1cncn1)c1ccc(Cl)cc1Cl | 5% | 2%[46.1 µM] | 5%[46.1 µM] | 8% | x | x | x | -9%
Cc1ccc(-n2c(-c3nn(C)cc3Cl)n[nH]c2=S)cc1 | 2% | -1% | -2% | -5% | -5% | 1% | 0.2% | 2%
COC(=O)c1cc(Cl)c(NC(=O)c2ccc(C(C)(C)C)cc2)cc1OC | -33% | u | u | u | 12% | u | -2.9% | -4%
COC(=O)c1cccc(Cn2c(Cl)c(/C=N/NC(=O)c3ccccc3Cl)sc2=O)c1 | -3% | -3% | u | -26% | 16% | -6% | -3.3% | 9%
CN(C)CCC#CC(O)(c1ccccc1)c1ccccc1 | 3% | u | -3% | -15% | 12% | 9% | 0.9% | -3%
COc1ccc(OC)c(CCNCc2c(C(=O)O)c(C)n(Cc3ccc(F)cc3Cl)c2C)c1 | x | -3%[46.1 µM] | -6%[46.1 µM] | -18% | x | 0% | -4.3% | x
O=C(COC(=O)c1cc(Cl)nc2ccccc12)c1ccc(Cl)cc1 | -21% | u | 20% | -3% | 15% | 10% | -7.7% | 5%
COc1ccc(S(=O)(=O)NCc2cccn2Cc2cccc(C)c2)cc1 | x | x | 15%[46.1 µM] | 72%[activator] | x | -18% | -10% | x
CCOP(=O)(O)c1ccccc1OCCCCCOc1ccccc1P(=O)(O)OCC | 6% | 2% | 4% | -17% | 5% | -1% | -2.8% | -3%
Cc1ccc(NC(=O)Nc2cc3c(cc2N2CCCCC2)n(C)c(=O)n3C)cc1Cl | x | -18%[46.1 µM] | u | u | x | 6% | -4.8% | x
COc1ccc(C(CNC(=O)c2nn(-c3ccccc3)c(=O)c3ccccc23)N2CCOCC2)cc1 (stereo unspecified) | 6% | -31%[46.1 µM] | -1% | u | x | x | x | -2%
O=C(OCc1nc2ccccc2s1)C1CCN(S(=O)(=O)c2cccs2)CC1 | 0% | -4% | u | 88%[activator] | -12% | 4% | -1.2% | 6%

The list continues:
SMILES | SARS PLP yeast | MARV entry inh | Lassa entry inh | StopGo reporter | NS1 inh | Cruzain noTriton | Cruzain Triton | RE007 growth inh
CC1CC(=O)Nc2ccccc2N1 (stereo unspecified) | x | 0%[46.1 µM] | 0%[46.1 µM] | -4% | x | x | x | x
CCN(CC)c1ccc(N2C(=O)/C(=C/c3cccnc3)SC2=S)cc1 | 0% | 1% | -21% | -16% | 13% | 20% | 0.3% | -3%
COc1ccc(/C=C/C(=O)NC(=S)NNC(=O)c2cc(OC)c(OC)c(OC)c2)cc1OC | 0% | x | x | -9% | 17% | x | x | -6%
Cc1ccc2nc3c(c(N)c2c1)CCN3c1ccccc1 | 0% | u | u | u | -15% | u | -4.0% | -15%
COc1ccc(-n2c(Cc3cccn3C)nnc2SCC(=O)NCc2ccc(F)cc2)cc1 | -1% | -11%&-11% | 10% | -2% | 9% | u | -1.5% | 0%
Oc1[nH]c(=S)sc1/C=C1\C(c2ccccc2)=Nc2ccccc21 | 11% | 9% | -3% | 5% | -6% | 25µM* | -9.1% | -7%
Cc1ccc(NC(=O)c2ccccc2)cc1OC(=O)c1ccccc1 | -3% | 8% | 17% | 31%[activator] | 2% | -12% | -3.6% | -4%
COc1ccc(C(C)C)cc1S(=O)(=O)NC1CCCC1 | -1% | x | x | 15% | -12% | x | x | -9%
CC(C)N1CCN(Cc2cccs2)CC1CCO (stereo unspecified) | 0% | x | x | 2% | 12% | x | x | -5%
CCOC(=O)c1sc2cc([N+](=O)[O-])cc(SCCO)c2c1N | 24% | -17% | -3% | -8% | 7% | -19% | -4.0% | -13%
CCSc1nc2sc3c(c2c(=O)n1C1CCCCC1)CCN(C)C3 | -2% | 2%&4% | 14% | -22% | 6% | 0% | -5.1% | -2%
O=C(Cc1ccc(F)cc1)Oc1ccc(C(=S)N2CCCC2)cc1 | 14% | u | -2% | -10% | -10% | -1% | -7.4% | -1%

Source: PubChem BioAssay
